Compound activity: PubChem, Johns Hopkins Ion Channel Center
KCNQ2 enhance – KCNQ2 (rat) channel potentiation. AID 2239. actives 0.54% (n = 310,000). O88943. CHO-K1 KCNQ2, FluxOR thallium flux fluorescence; hits give high values. B-score at 10 µM;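 active = fluorescence ratio B-score at least 3 SD of library B-scores, with initial fluorescence B-score within 3 SD, cut at about 5.3 in these data; same plate scores as AID 2156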;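 also: B-score of peak minus minimum over baseline fluorescence ratio after K+ and Tl+ stimulus; positive B-score means potentiation of KCNQ2 with more thallium influx and brighter signal; only the inactives scoring about 0 or higher are listed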
Target sequence (O88943 whole entry, looked up): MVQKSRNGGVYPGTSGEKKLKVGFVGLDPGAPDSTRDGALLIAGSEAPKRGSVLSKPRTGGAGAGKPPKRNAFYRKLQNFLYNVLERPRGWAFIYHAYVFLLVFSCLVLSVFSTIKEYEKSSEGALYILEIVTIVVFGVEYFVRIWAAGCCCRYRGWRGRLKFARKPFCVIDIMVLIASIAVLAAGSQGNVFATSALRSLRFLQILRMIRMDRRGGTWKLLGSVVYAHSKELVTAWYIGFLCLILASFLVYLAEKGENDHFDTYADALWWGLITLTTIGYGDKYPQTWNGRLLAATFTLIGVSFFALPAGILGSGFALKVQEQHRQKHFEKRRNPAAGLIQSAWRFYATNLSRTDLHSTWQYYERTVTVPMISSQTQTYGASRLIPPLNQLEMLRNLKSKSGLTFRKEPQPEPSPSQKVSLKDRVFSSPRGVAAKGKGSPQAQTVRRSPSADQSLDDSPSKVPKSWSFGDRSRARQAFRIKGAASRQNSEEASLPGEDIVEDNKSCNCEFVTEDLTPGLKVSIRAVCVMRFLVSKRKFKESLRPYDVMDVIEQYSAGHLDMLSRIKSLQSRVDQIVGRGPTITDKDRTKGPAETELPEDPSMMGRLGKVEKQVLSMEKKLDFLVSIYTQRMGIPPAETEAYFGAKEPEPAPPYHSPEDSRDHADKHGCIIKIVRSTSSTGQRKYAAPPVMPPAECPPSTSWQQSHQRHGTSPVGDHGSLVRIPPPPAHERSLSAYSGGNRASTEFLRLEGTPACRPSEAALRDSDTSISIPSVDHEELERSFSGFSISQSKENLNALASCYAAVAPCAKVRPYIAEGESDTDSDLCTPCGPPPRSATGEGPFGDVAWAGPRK
KCNQ2 enhance baseline – also measured in KCNQ2 enhance; calls as there; B-score; compound at 10 µM; measured here: initial fluorescence intensity artifact check;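 brightness before thallium and not channel activity; 0 = typical well and far values either way flag optical interference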
Numbers without * were called inactive.

Sample of the layout (two entries):
SMILES	KCNQ2 enhance	KCNQ2 enhance baseline
C=CCn1c(N)c(C(=O)NCCC2=CCCCC2)sc1=S	0.15	-1.83
CC(=O)c1ccc(CCCC(=O)O)cc1	0.23	0.19

Results, previewed entries included:
SMILES	KCNQ2 enhance	KCNQ2 enhance baseline
C=CCn1c(N)c(C(=O)NCCC2=CCCCC2)sc1=S	0.15	-1.83
CC(=O)c1ccc(CCCC(=O)O)cc1	0.23	0.19
Cc1cc(C(F)(F)F)nn1CC(=O)NCc1cccs1	1.21	-0.02
Cn1c(CCN2CCN(c3ccccn3)CC2)nc2cc(NC(=O)COc3ccccc3)ccc21	0.19	-0.98
Nc1nc2c(Cl)ccc(Cl)c2s1	6.02*	-0.39*
CC(=O)Nc1ccc(S(=O)(=O)NC2(C(F)(F)F)NC(=O)N(c3ccc(C)cc3)C2=O)cc1 (stereo not given)	1.37	-0.57
C/C(=N\NC(=O)CN1CCN(S(=O)(=O)c2ccc(C)cc2)CC1)c1ccc(O)cc1	1.97	-0.01
CC(C)(C)NC(=S)NNC(=O)c1ccc2ncccc2c1	0.94	0.41
CC(=O)c1ccccc1OCCOCCOCCOc1ccccc1C(C)=O	0.33	0.29
C=CCn1cccc(C(=O)Nc2cc(OC)cc(OC)c2)c1=O	1.45	0.16
Nc1c(-c2ccccc2)cnc2cc(-c3ccccc3)nn12	0.48	0.84
Cc1ccc2cc3cc(C(=O)NC4CC4)oc3nc2c1	0.03	-0.23
CCN(CC)C(=O)c1n[nH]c(=O)c2ccccc12	0.04	-0.01
O=C(CN(C(=O)c1nsc(Cl)c1Cl)c1ccc(F)cc1)NC1CCCC1	0.1	2.13
CCOC(=O)N1CCN(C(=O)CNS(=O)(=O)c2cccs2)CC1	0.28	1.57
CCOc1ccccc1CN1CCNC(=O)C1CC(=O)NCc1nccn1CC (stereo not given)	0.53	-1.8
Cc1ccc(C)c(OCc2nnc(NC(=O)c3ccc4c(c3)OCO4)s2)c1	0.57	0.93
CCOC(=O)c1c(NC(=O)c2cc3n(n2)C(C(F)(F)F)CC(c2ccccc2)N3)sc(C)c1C (stereo not given)	0.53	-0.34
Cc1ccc2c(c1)C1(C(=O)N2C)N2CC3(C)CN1CC(C)(C2)C3=O (stereo not given)	0.69	0.93
Cc1nn(Cc2c(Cl)cccc2Cl)c(C)c1NC(=O)Cn1nc([N+](=O)[O-])c(Cl)c1C	1.33	-0.58
C=CCn1c(N)c(C(=O)NCc2ccco2)sc1=S	1.12	0
CCCc1cc(=O)oc2cc(C)cc(OCC(=O)NCc3cccnc3)c12	1.62	-0.6
O=[N+]([O-])c1cccc(-c2noc(-c3ccco3)n2)c1	0.3	-0.91
CCOc1ccccc1Oc1cn[nH]c1-c1ccc(O)cc1O	0.8	0.7
CCC(CC)C(=O)Nc1cccc(/C(C)=N\NC(=O)c2ccc(C)s2)c1	0.21	1.62
SMILES	KCNQ2 enhance	KCNQ2 enhance baseline
COCCN1CCn2c(nc3cc(NC(=O)c4cccs4)ccc32)C1	0.95	1.04
COc1ccc(N(CC(=O)NC(C)(C)C)S(=O)(=O)c2ccccc2)cc1OC	0.93	-2.02
CC(=O)c1sc(NC(=O)C2CCN(C(=O)c3ccc(F)cc3)CC2)nc1-c1ccccc1	0.02	-0.02
Cc1ccccc1CC1(CO)CCCN(C(=O)CCC(F)(F)F)C1 (stereo not given)	0.04	-0.1
O=C(Nc1ccc(-c2nnc(-c3ccccc3)o2)cc1)c1ccc(Br)o1	1.06	-0.6
O=C(CSCc1ccccc1)Nc1ccc(F)cc1F	0.8	1.02
CCc1nnc(NC(=O)c2ccc(COc3ccccc3)o2)s1	0.67	0.11
O=C(c1ccco1)N1CCN(CCOCCOc2cccc3ccccc23)CC1	0.35	1.35
C#CCn1c(=NC(=O)c2ccc(S(=O)(=O)N3CCc4ccccc4C3)cc2)sc2cc(S(N)(=O)=O)ccc21	0.68	-0.08
Clc1ccccc1Oc1cnc2ccccc2n1	1.54	-0.49
Cc1cc(C)nc(NC(=O)c2c(Cl)cccc2Cl)n1	0.51	-1.61
c1ccc(COc2ccc3nocc3c2)cc1	1.25	1.05
CCOC(=O)C1=C(C)N(CCCC(=O)O)C(=O)NC1c1ccc(Cl)cc1 (stereo not given)	0.28	0.6
CCOc1cc(/C=N/NC(=O)C(=O)NCCCOC(C)C)cc(Br)c1O	0.09	-0.25
Cc1sc(/C=C2\C(=O)ON=C2c2ccccc2)cc1Br	0.43	-0.15
Cc1cc(C)n(CC(=O)O)n1	0.11	1.05
Nc1nncn1C(=O)c1cc(Br)ccc1Cl	0.3	-0.4
COc1ccccc1CNC(=O)CS(=O)(=O)c1ccc(C)cc1	0.7	1.17
O=C1NC(NS(=O)(=O)c2ccc(Cl)cc2)(C(F)(F)F)C(=O)N1Cc1cccnc1 (stereo not given)	1.61	0.55
C/C(=N\O)c1oc2ccc3c(C)cc(=O)oc3c2c1C	0.76	-0.52
Cc1onc(-c2c(Cl)cccc2Cl)c1NC(=O)NN(C)c1ccc([N+](=O)[O-])cn1	1.18	-0.08
COc1ccc(NC(=O)C(=O)N/N=C(\C)CC(=O)Nc2cc(C)ccn2)c(OC)c1	1.03	1.52
CNC(=O)NC(=O)COC(=O)c1ccccc1OCc1ccccc1	1.46	-0.99
CC(C)CCN(C(=S)NC(=O)C1CCCCC1)c1c(N)n(Cc2ccccc2)c(=O)[nH]c1=O	0.37	0.32
Cc1nc(CCNC(=O)c2ccccc2)cs1	1.49	0.31

Another view of 4 compounds above:
Structure: O=C(CSCc1ccccc1)Nc1ccc(F)cc1F
  KCNQ2 enhance: 0.8
  KCNQ2 enhance baseline: 1.02
Structure: COc1ccccc1CNC(=O)CS(=O)(=O)c1ccc(C)cc1
  KCNQ2 enhance: 0.7
  KCNQ2 enhance baseline: 1.17
Structure: CCOC(=O)C1=C(C)N(CCCC(=O)O)C(=O)NC1c1ccc(Cl)cc1 (stereo not given)
  KCNQ2 enhance: 0.28
  KCNQ2 enhance baseline: 0.6
Structure: O=C(CN(C(=O)c1nsc(Cl)c1Cl)c1ccc(F)cc1)NC1CCCC1
  KCNQ2 enhance: 0.1
  KCNQ2 enhance baseline: 2.13

(list continues)
SMILES	KCNQ2 enhance	KCNQ2 enhance baseline
Cc1c(Cl)c([N+](=O)[O-])nn1CC(=O)NCc1ccco1	1.12	-0.41
O=C(NCCc1c[nH]c2ccccc12)c1cnccn1	1.1	2.43
CCCC(=O)OCC(=O)c1[nH]c(C)c(C(C)=O)c1C	0.97	2.41
CCn1cc(/C=N\NC(=O)c2ccccc2Cl)cn1	1.17	0.06
O=C(CN(C(=O)c1ccc2c(c1)OCCO2)c1ccccc1)NCC1CCCO1 (stereo not given)	1.15	1.1
CCCCOC(=O)Nc1nnc(CC(=O)NCc2ccccc2)s1	1.71	-0.03
Cc1cccc(Nc2nc3c(S(=O)(=O)c4ccccc4)nnn3c3ccccc23)c1	0.73	-1.32
CCc1ccc(/C=N/NC(=O)c2cc(-c3ccncc3)nc3ccccc23)s1	0.01	0.83
COCCn1c(C)cc(C(=O)CSc2nc(C)c(C)c(C)n2)c1C	0.14	-0.11
CC(=O)c1c(N2CCN(C(=O)C3CCCO3)CC2)nc(=S)n(-c2ccccc2)c1C (stereo not given)	2.01	-0.55
O=C(CN1CCN(c2ccccn2)CC1)Nc1ccc(OCc2ccccc2)cc1	1.43	-0.26
O=C(Nc1ccccc1C(=O)N1CCOCC1)c1cccc(S(=O)(=O)N2CCCC2)c1	1.53	0.52
COC(=O)CSc1nc2nc(C)c(Br)cc2[nH]1	0.4	-0.4
CC1(C)CC(NC(=O)c2cc(COc3cccc(C(F)(F)F)c3)on2)CCO1 (stereo not given)	0.85	-0.58
COC1Cc2ccccc2N(C(=O)N2CCN(CCO)CC2)c2ccccc21 (stereo not given)	0.11	0.58
COC(=O)c1cccc(N(C(=O)c2ccco2)C(C(=O)NC2CCCC2)c2ccc(N3CCOCC3)cc2)c1 (stereo not given)	0.24	-0.58
O=C(NCCc1c[nH]c2ccc(Cl)cc12)c1ccc([N+](=O)[O-])cc1	0.76	1.95
COc1cc(CNCCNC(=O)c2nonc2N)ccc1OCc1ccc(Cl)nc1	1.06	-1.07
COc1ccc(Nc2nc(NCc3ccco3)nc(N/N=C/c3ccccc3)n2)cc1	0.55	1.23
COc1ccc(OCC(=O)NC(=S)Nc2ccccc2F)cc1	0.86	-0.59
Cn1nnc2cc(C(=O)N3CCC(c4ccccc4)C3)ccc21 (stereo not given)	0.02	0.59
CCC1(C)SC(N)=NN1C(C)=O (stereo not given)	0.5	1.28
CC1(c2ccccc2)NC(=O)N(N)C1=O (stereo not given)	0.55	1.05
Cn1c(-c2sc3ccccc3c2Cl)n[nH]c1=S	3.12	-1.91
c1ccc(C(c2ccccn2)c2ccccn2)cc1	1.62	0.16
SMILES	KCNQ2 enhance	KCNQ2 enhance baseline
COc1ccc(CN2[C@@H](CC(=O)O)c3ccccc3S2(=O)=O)cc1	0.03	0.46
Cc1ccsc1/C=N/NC(=O)c1nnn(-c2nonc2N)c1C	0.24	0.88
O=C(NC1CCCCC1)C(c1ccccc1)N1CCC2(CC1)OCCO2 (stereo not given)	0.34	2.07
Cc1ccccc1C(=O)Nc1ccc2nc3n(c(=O)c2c1)CCC3	2.66	0.02
O=C(Nc1nccs1)c1ccc(Cl)c(S(=O)(=O)N2CCCCC2)c1	1.08	-0.31
COc1ccc(-c2nc3cc(NC(=O)c4ccc5c(c4)OCO5)ccc3o2)cc1	0.68	-0.67
COc1ccc(/C=C/C(=O)Nc2cccc(S(=O)(=O)N3CCCC3)c2)cc1OC	1.74	-0.17
CC(=O)c1c(C)nc(-c2ccc(Cl)cc2)nc1NC(=O)C(C)C	0.61	-0.19
CC1=NNC(=O)C1CCC(=O)N/N=C/C(Br)=C/c1ccccc1 (stereo not given)	1.97	1.31
Cc1c(C(=O)Oc2ccc(-c3cnc4ccccc4n3)cc2)cccc1[N+](=O)[O-]	0.03	-1.12
O=C(c1cccnc1)N1CCCC(Nc2ccc(F)cc2)C1 (stereo not given)	1.9	-1.48
CCOC(=O)C(NC(=O)c1ccccc1)(OCC1(CC)COC1)C(F)(F)F (stereo not given)	0.77	0.65
CCOc1ccc(CCNC(=O)c2cnccn2)cc1OCC	1.01	3.49
O=C(CN1C(=O)NC2(CCc3ccccc3C2)C1=O)Nc1ccc(F)cc1 (stereo not given)	0.42	-0.08
CCn1nc(C)c(CNC(=O)C2CCC(=O)N(CCc3ccc(OC)cc3)C2)c1C (stereo not given)	0.04	-1.25
Cn1c(NC(=O)c2ccccc2C(F)(F)F)cc(=O)n(C)c1=O	1.8	0.68
Cc1ccccc1C(=O)NC1CCCN(Cc2ccccc2F)C1 (stereo not given)	0.06	2.08
CCCCC(=O)NC(Nc1sc2c(c1C(N)=O)CCCC2)(C(=O)OCC)C(F)(F)F (stereo not given)	0.6	0.01
CC(=O)NC(Cc1cccc(F)c1)C(=O)NC1CCN(C(=O)c2cccc(C)c2)CC1 (stereo not given)	0.1	-0.5
O=C(O)CCc1ccc(S(=O)(=O)N2CCOCC2)cc1	2.1	0.34
CCOC(=O)N1CCC(O)(c2cc(C)c(C)cc2C)CC1	1.45	0.82
COc1ccc(-n2c(Cc3cccs3)nnc2SCC(=O)Nc2ccc3c(c2)OCCO3)cc1	0.06	1.61
CCc1nnc(NC(=O)CN2CCC(O)(c3ccccc3OC)CC2)s1	0.29	-1.55
CCOC(=O)c1ccc(CNC(=O)CSc2nc(NC(=O)c3ccccc3)c3c(C)c(C)oc3n2)cc1	0.21	-0.07
CC(C)(C)c1ccc(/C=C/C(=O)N2CCCCC2)cc1	0.74	0.5

A stretch taken from the entries so far:
SMILES	KCNQ2 enhance	KCNQ2 enhance baseline
CCOC(=O)N1CCC(O)(c2cc(C)c(C)cc2C)CC1	1.45	0.82
COc1ccc(-n2c(Cc3cccs3)nnc2SCC(=O)Nc2ccc3c(c2)OCCO3)cc1	0.06	1.61
CCc1nnc(NC(=O)CN2CCC(O)(c3ccccc3OC)CC2)s1	0.29	-1.55
CCOC(=O)c1ccc(CNC(=O)CSc2nc(NC(=O)c3ccccc3)c3c(C)c(C)oc3n2)cc1	0.21	-0.07
CC(C)(C)c1ccc(/C=C/C(=O)N2CCCCC2)cc1	0.74	0.5

More compounds:
SMILES	KCNQ2 enhance	KCNQ2 enhance baseline
COCCn1c(SCC(=O)N2CCC(C)CC2)nc2c(c1=O)SCC2	2.26	0.13
CCOC(=O)C1=C(COC(=O)/C=C/c2ccccc2F)NC(=O)NC1C (stereo not given)	1.54	0.34
CCCCNC(=O)c1cc(-c2ccc(OC)c(OC)c2)on1	2.22	1.96
CCOC(=O)c1nc(-c2ccccc2)sc1C(C)=O	0.97	-1.09
COc1ccc(CCNC(=O)c2cc3c(=O)n4cccc(C)c4nc3n(CC3CCCO3)c2=N)cc1 (stereo not given)	1.33	0.09
CSCC[C@H](NC(=O)NCCC1=CCCCC1)C(=O)O	0.09	0.97
CCOC(=O)C1=C(C)NC2=C(C(=O)OC2)C1c1ccccc1 (stereo not given)	0.33	-0.01
O=C(Nc1c(F)cc(F)cc1Br)c1cc2nc(C(F)F)cc(C(F)F)n2n1	0.67	-1.18
COc1ccccc1OC(C)C(=O)Nc1ccccc1C(=O)NCc1cccnc1 (stereo not given)	0.28	0.01
CCOc1ccc(N/C=C/C(=O)c2ccc(OC)c(OC)c2)cc1	0.68	-0.4
O=c1ccnc(SCCc2ccccc2)[nH]1	0.05	-1.6
CC(=O)Nc1ccc(OCc2cnc(Cl)s2)cc1	0.21	0.03
Cc1c(C(=O)N2CCCC2)sc(NC(=O)c2cccc(Cl)c2)c1C#N	0.54	0.03
Cc1ccc(S(=O)(=O)N(C)C)cc1NC(=O)COC(=O)C1CC(=O)N(c2ccc3c(c2)OCCO3)C1 (stereo not given)	1.26	-0.06
O=C(Nc1nc(=O)[nH]s1)c1ccccc1	0.25	-0.13
O=C(CN1C(=O)CCC1=O)Nc1nc(-c2ccc3ccccc3c2)cs1	0.35	-0.13
CCOC(=O)Cn1nc(C)c2c1CCCC2=O	1.46	-1.02

This is a subset; rates above refer to the full screens.
